Screening results deposited in PubChem BioAssay by Southern Research Institute.
Mtb growth: Confirmatory growth inhibition assay against Mycobacterium tuberculosis H37Rv, potency (AID 1949); most inactive calls were filed without a number and no value below 0 was filed; inhibition, % at 10 µg/mL; hits with a dose series show IC50 in µg/mL; 100,000 tested, 1.6% active;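 active = confirmed in a dose series; inconclusive = about 50% or more but not retested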;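 note: bacteria grown 7 days with compound before Alamar blue readout; 0% = untreated bacteria and 100% = reference antibiotic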
* hit, by the source's call. Some of the compounds tested (hit frequency here may not be typical).

Results for CCCC(=O)N1CCN(c2ccc(NC(=O)c3ccc(-c4ccc(Cl)cc4)o3)cc2Cl)CC1 ?
Mtb growth: 1.4µg/mL*

Results for COC(=O)c1cc(NC(=O)CSc2nnc(COc3ccccc3Cl)n2C)ccc1Cl ?
Mtb growth: inactive

What do the screens show for `CCOc1ccc(S(=O)(=O)Nc2ccc3c(c2)OCO3)cc1`?
Mtb growth: 10%

How did COc1cc(NC(=S)N2CCN(Cc3ccc4c(c3)OCO4)CC2)c(OC)cc1Cl do in these assays?
Mtb growth: inactive

How did CC1=C(C(=O)Nc2ccccc2C)C(c2ccc(C)o2)N2C(=O)CSC2=N1 (stereo not drawn) do in these assays?
Mtb growth: inactive

What do the screens show for `C=CCSc1nc2c(c(=O)[nH]1)C(c1ccccc1Cl)C1=C(CC(C)(C)CC1=O)N2` (stereo not drawn)?
Mtb growth: 1%

How did O=C(NC(NC(=S)Nc1ccc(Cl)c(Cl)c1)C(Cl)(Cl)Cl)c1ccccc1F (stereo not drawn) do in these assays?
Mtb growth: 2%

How did Cc1ccccc1NC(=O)c1c(NC(=O)c2ccco2)sc2c1CCC2 do in these assays?
Mtb growth: inactive

Results for CCn1c(SCC(=O)c2ccc(Br)cc2)nnc1-c1ccco1 ?
Mtb growth: 2%

What do the screens show for `CN(C)CCNC(=O)Nc1ccc(Cl)c(Cl)c1`?
Mtb growth: 9%

How did COC(=O)c1cc(OC)c(OC)cc1NC(=O)COc1ccccc1F do in these assays?
Mtb growth: 2%

How did COc1ccc(N(CC(=O)Nc2ccccc2C(C)C)S(=O)(=O)c2ccccc2)cc1Cl do in these assays?
Mtb growth: 3%

What do the screens show for `COc1cc(OC)cc(C(=O)O/N=C2\CCOc3cc(OC)ccc32)c1`?
Mtb growth: 17%

What do the screens show for `CS(=O)(=O)N(CC(=O)NCCSCc1ccco1)c1cc(Cl)c(Cl)cc1Cl`?
Mtb growth: inactive

What do the screens show for `COC(=O)c1ccc(NC(=O)CSc2nc3ccccc3c(=O)n2-c2ccc(C)cc2)cc1`?
Mtb growth: inactive

How did CCC(=O)NC(=S)Nc1ccc(NC(=S)NC(=O)c2cccc(OC)c2)cc1 do in these assays?
Mtb growth: 4%

Results for COc1ccc([N+](=O)[O-])cc1NC(=O)CSCc1c(Cl)cccc1Cl ?
Mtb growth: inactive

What do the screens show for `CN(Cc1ccccc1)C(=O)c1ccccc1N(C)S(C)(=O)=O`?
Mtb growth: inactive

What do the screens show for `Cn1c(=O)c2cc(NC(=O)c3ccc(F)cc3)c(=O)oc2n(C)c1=O`?
Mtb growth: inactive

Results for CCOC(=O)c1c(NC(=O)c2ccco2)sc(C(=O)NC2CCCC2)c1C ?
Mtb growth: inactive

How did Cc1nc(SC(C(=O)O)c2ccccc2)cc(-c2ccccc2)n1 (stereo not drawn) do in these assays?
Mtb growth: inactive

How did O=c1[nH]c(Nc2nc3ccccc3o2)nc2c1CCCC2 do in these assays?
Mtb growth: inactive

How did O=C(CC(c1ccccc1)c1c(O)ccc2ccccc12)NCc1ccccc1 (stereo not drawn) do in these assays?
Mtb growth: inactive

Results for CC(NC(=O)C(C)(C)Oc1ccc(Cl)cc1)C12CC3CC(CC(C3)C1)C2 (stereo not drawn) ?
Mtb growth: 4%

What do the screens show for `COc1ccc(CSC2=NCCN2)cc1[N+](=O)[O-]`?
Mtb growth: inactive

How did CCOC(=O)c1ccc(NC(=O)C(C)Sc2n[nH]c(CC)n2)cc1 (stereo not drawn) do in these assays?
Mtb growth: inactive

How did Cc1cc(OCC(=O)NCC2CCCO2)cc(C)c1Cl (stereo not drawn) do in these assays?
Mtb growth: inactive

Results for COc1ccc(C)cc1S(=O)(=O)Oc1cc(C)cc(C)c1 ?
Mtb growth: inactive

What do the screens show for `Cc1ccc2c(c1)C(O)(c1c(C)[nH]c3ccccc13)C(=O)N2` (stereo not drawn)?
Mtb growth: inactive

What do the screens show for `O=C(CCC1CCCC1)N1CCC(Cc2ccccc2)CC1`?
Mtb growth: 5%

What do the screens show for `COc1cc2ccccc2cc1C(=O)N1CCN(C)CC1`?
Mtb growth: inactive

What do the screens show for `O=c1c2ccccc2nc(/C=C/c2ccc([N+](=O)[O-])o2)n1-c1ccccc1C(F)(F)F`?
Mtb growth: 4%

Results for CC(C)C(=O)Nc1cccc(NC(=O)c2ccc(-c3ccccc3)cc2)c1 ?
Mtb growth: inactive

What do the screens show for `COC(=O)c1ccccc1SCc1ccccc1`?
Mtb growth: inactive

Results for O=C(c1cccs1)N1CCN(S(=O)(=O)N2CCCCC2)CC1 ?
Mtb growth: inactive

Results for COc1cccc(NC(=O)c2ccc(C(C)C)cc2)c1 ?
Mtb growth: inactive

What do the screens show for `CCOC(=O)CCc1c(C)c2cc(Cl)c(OCc3ccc(F)cc3Cl)cc2oc1=O`?
Mtb growth: 2%

How did N#CC1=C(N)Oc2n[nH]c(-c3ccccc3Cl)c2C1c1cccc(OC(=O)c2ccco2)c1 (stereo not drawn) do in these assays?
Mtb growth: inactive

How did COc1cc(C)c(Cl)c(C)c1S(=O)(=O)NCc1ccccc1 do in these assays?
Mtb growth: inactive

Results for CCOc1ccc(N(CC(=O)N2CCN(C)CC2)S(=O)(=O)c2ccc(SC)cc2)cc1 ?
Mtb growth: inactive

How did COc1ccc(OCCC(=O)Nc2nc(C3CCCCC3)cs2)cc1 do in these assays?
Mtb growth: 26µg/mL*

Results for Cn1c(=O)c2c(nc(NCC(O)c3ccccc3)n2Cc2ccc(F)cc2)n(C)c1=O (stereo not drawn) ?
Mtb growth: inactive

What do the screens show for `Cc1cccc(C(=O)N(CCC#N)CCC#N)c1`?
Mtb growth: inactive

Results for Cc1cccc(C(=O)Nc2ccccc2C(=O)Nc2cccc(C(=O)O)c2C)c1 ?
Mtb growth: inactive

How did O=C(CSc1nnc(-c2ccncc2)n1-c1ccc(Br)cc1)Nc1ccc2cn[nH]c2c1 do in these assays?
Mtb growth: inactive

What do the screens show for `C=CCn1c(-c2cccc(C)c2)nc2ccccc21`?
Mtb growth: inactive

Results for Cc1cc(C)cc(N(CC(=O)N2CCN(Cc3ccccc3)CC2)S(=O)(=O)c2ccccc2)c1 ?
Mtb growth: 1%

Results for Cc1ccc(C(=O)N2CCN(c3ccc(NC(=O)Cc4ccccc4)cc3)CC2)cc1 ?
Mtb growth: inactive

How did COc1cc(S(=O)(=O)N2CCC(C(N)=O)CC2)c(C)cc1C do in these assays?
Mtb growth: inactive

Results for COc1ccc(OC)c(NC(=S)N2CCC(C(N)=O)(N3CCCCC3)CC2)c1 ?
Mtb growth: 1%

Results for Cc1cc(Cl)c(S(=O)(=O)NC(C)(C)C)cc1OCC(N)=O ?
Mtb growth: inactive

What do the screens show for `COc1ccc(S(=O)(=O)N2CCN(C(=O)NC3CCCCC3)CC2)cc1OC`?
Mtb growth: inactive

How did CCOc1ccccc1-c1c(C#N)c(N)nc2c1CCCCCC2 do in these assays?
Mtb growth: 1%

What do the screens show for `COc1ccc(-c2cc(-c3ccccc3)c(C#N)c(SCC(=O)Nc3cc(C)on3)n2)cc1`?
Mtb growth: inactive

How did CS(=O)(=O)N(CC(N)=O)C1CCCCC1 do in these assays?
Mtb growth: inactive

What do the screens show for `CC(C)(C)C(=O)NCCNc1ccc([N+](=O)[O-])cc1C(F)(F)F`?
Mtb growth: 25%

How did Cc1onc(-c2c(F)cccc2Cl)c1C(=O)NCc1ccncc1 do in these assays?
Mtb growth: inactive

What do the screens show for `COc1ccc(S(=O)(=O)NCCSc2ccc(C)cc2)cc1OC`?
Mtb growth: 3%

Results for COc1ccccc1CNC(=O)c1ccc(N(Cc2ccccc2C)S(C)(=O)=O)cc1 ?
Mtb growth: inactive

What do the screens show for `COc1cc([N+](=O)[O-])ccc1NC(=O)COc1ccc(Cl)cc1Br`?
Mtb growth: inactive

Pulled one by one from the entries so far, four records:
How did CS(=O)(=O)N(CC(N)=O)C1CCCCC1 do in these assays?
Mtb growth: inactive

How did CCOc1ccccc1-c1c(C#N)c(N)nc2c1CCCCCC2 do in these assays?
Mtb growth: 1%

Results for Cc1cc(Cl)c(S(=O)(=O)NC(C)(C)C)cc1OCC(N)=O ?
Mtb growth: inactive

How did Cc1onc(-c2c(F)cccc2Cl)c1C(=O)NCc1ccncc1 do in these assays?
Mtb growth: inactive

More compounds:
Results for O=C(COc1ccccc1)Nc1ccccc1C(=O)Nc1ccc(Cl)cc1 ?
Mtb growth: inactive

Results for COCC(=O)NNC(=S)NC(C)c1ccccc1 (stereo not drawn) ?
Mtb growth: 7%

How did O=[N+]([O-])c1cccc(-c2nc(-c3ccccc3)no2)c1 do in these assays?
Mtb growth: inactive

What do the screens show for `CCOc1ccc2c(C)c(CC(=O)OC)c(=O)oc2c1C`?
Mtb growth: inactive

Results for O=C(c1ccc(Cl)cc1)c1ccc(CSc2nnc(-c3ccccc3)o2)o1 ?
Mtb growth: <0.1µg/mL*

What do the screens show for `COc1ccc(OC)c(N(CC(=O)Nc2ccc(C)cc2C)S(C)(=O)=O)c1`?
Mtb growth: inactive

How did Cn1c(COc2ccccc2Cl)nnc1SCC(=O)Nc1ccccc1Cl do in these assays?
Mtb growth: inactive

How did CCOC(=O)Nc1cccc(NC(=O)c2cccc3ccccc23)c1 do in these assays?
Mtb growth: inactive

What do the screens show for `COc1cccc(C(=O)N2CCN(C(=O)c3cccc(Cl)c3)CC2)c1OC`?
Mtb growth: inactive

What do the screens show for `C=C(C)Cn1c(-c2ccccc2)nc2ccccc21`?
Mtb growth: inactive

How did COc1ccc(CNCc2cccc(OC)c2OC)cc1 do in these assays?
Mtb growth: inactive

Results for O=C1N(Cc2ccccc2)c2ccc(Br)cc2C1(O)c1c[nH]c2ccccc12 (stereo not drawn) ?
Mtb growth: inconclusive

Results for N#CSc1ccc(NC(=O)CSc2nc3ccccc3[nH]2)cc1 ?
Mtb growth: 6.2µg/mL*

Results for Cc1ccccc1NC(=O)c1cccc(C(F)(F)F)c1 ?
Mtb growth: inactive

Results for COc1ccc(C(=O)CSc2nc(C(F)(F)F)cc(C(F)(F)F)c2C#N)cc1 ?
Mtb growth: 3%

What do the screens show for `CC1(C)C(=O)C2(C(=O)NCc3ccccc3)CCC1C2` (stereo not drawn)?
Mtb growth: 0%

Results for Cc1cc(C)cc(OCC(=O)Nc2ccc(NC(=O)COc3cc(C)cc(C)c3)cc2)c1 ?
Mtb growth: inactive

What do the screens show for `CCOC(=O)c1cc2n(n1)C(C(F)(F)C(F)(F)F)CC(C)N2` (stereo not drawn)?
Mtb growth: inactive

How did CN(C)C(=O)c1ccc(N(C)S(=O)(=O)c2ccccc2)cc1 do in these assays?
Mtb growth: 6%

What do the screens show for `Cc1ccccc1CN(c1ccc(C(=O)Nc2ccc3c(c2)OCCO3)cc1)S(C)(=O)=O`?
Mtb growth: inactive

How did CNC(=O)C1CCCN1S(=O)(=O)c1ccc(F)cc1 (stereo not drawn) do in these assays?
Mtb growth: inactive

Results for O=S(=O)(Cc1ccccc1)Nc1ccc(S(=O)(=O)N2CCOCC2)cc1 ?
Mtb growth: inactive

What do the screens show for `Cc1cccc(OCc2ccc(C(=O)Nc3ccc(C(N)=O)cc3)cc2)c1`?
Mtb growth: inactive

What do the screens show for `COc1ccc(Cl)cc1C(=O)NCc1ccc(CNC(=O)c2cc(Cl)ccc2OC)cc1`?
Mtb growth: inactive

Results for CC(C)c1ccccc1NC(=O)CC(C)(C)C ?
Mtb growth: inactive

How did S=C(Nc1ccccc1)N1CCC(c2ccccc2)=N1 do in these assays?
Mtb growth: 13%

How did O=C(COc1ccccc1)NC(=S)Nc1ccccc1C(F)(F)F do in these assays?
Mtb growth: inactive

Results for CC1=CC(C)(C)Nc2ccc(OC(=O)c3cccs3)cc21 ?
Mtb growth: 3µg/mL*

Results for O=C(CSc1nnc(Cc2ccccc2)o1)N1c2ccccc2Sc2ccccc21 ?
Mtb growth: inactive

How did CCOC(=O)NC(=S)Nc1c(C)n(C)n(-c2ccccc2)c1=O do in these assays?
Mtb growth: inactive

Results for Cc1cc(C)c2c(c1)c(-c1ccccc1)c(-c1ccccc1)n2CC(O)CN1CCN(CCO)CC1 (stereo not drawn) ?
Mtb growth: 3µg/mL*

How did CCc1ccc(C(=O)Nc2ccc(NC(=O)c3ccccc3F)cc2)o1 do in these assays?
Mtb growth: inactive

How did COC(=O)c1c(NC(=O)C2CC2c2ccccc2)sc2c1CCCC2 (stereo not drawn) do in these assays?
Mtb growth: 3%

Of the compounds above, these contain fluorine.
How did O=C(NC(NC(=S)Nc1ccc(Cl)c(Cl)c1)C(Cl)(Cl)Cl)c1ccccc1F (stereo not drawn) do in these assays?
Mtb growth: 2%

How did COC(=O)c1cc(OC)c(OC)cc1NC(=O)COc1ccccc1F do in these assays?
Mtb growth: 2%

What do the screens show for `Cn1c(=O)c2cc(NC(=O)c3ccc(F)cc3)c(=O)oc2n(C)c1=O`?
Mtb growth: inactive

What do the screens show for `O=c1c2ccccc2nc(/C=C/c2ccc([N+](=O)[O-])o2)n1-c1ccccc1C(F)(F)F`?
Mtb growth: 4%

What do the screens show for `CCOC(=O)CCc1c(C)c2cc(Cl)c(OCc3ccc(F)cc3Cl)cc2oc1=O`?
Mtb growth: 2%

Results for Cn1c(=O)c2c(nc(NCC(O)c3ccccc3)n2Cc2ccc(F)cc2)n(C)c1=O (stereo not drawn) ?
Mtb growth: inactive

What do the screens show for `CC(C)(C)C(=O)NCCNc1ccc([N+](=O)[O-])cc1C(F)(F)F`?
Mtb growth: 25%

How did Cc1onc(-c2c(F)cccc2Cl)c1C(=O)NCc1ccncc1 do in these assays?
Mtb growth: inactive

Results for Cc1ccccc1NC(=O)c1cccc(C(F)(F)F)c1 ?
Mtb growth: inactive

Results for COc1ccc(C(=O)CSc2nc(C(F)(F)F)cc(C(F)(F)F)c2C#N)cc1 ?
Mtb growth: 3%

What do the screens show for `CCOC(=O)c1cc2n(n1)C(C(F)(F)C(F)(F)F)CC(C)N2` (stereo not drawn)?
Mtb growth: inactive

How did CNC(=O)C1CCCN1S(=O)(=O)c1ccc(F)cc1 (stereo not drawn) do in these assays?
Mtb growth: inactive

How did O=C(COc1ccccc1)NC(=S)Nc1ccccc1C(F)(F)F do in these assays?
Mtb growth: inactive

How did CCc1ccc(C(=O)Nc2ccc(NC(=O)c3ccccc3F)cc2)o1 do in these assays?
Mtb growth: inactive
